SMN2 splice enh: enhancers of SMN2 splice variant expression; HEK293 SMN2-luciferase splicing reporter, luminescence, 30-36 h; Potency, µM (titrated, usually from 46.1 µM), for the others: at the top dose activity change, positive = activation, hits mostly activators; 210,000 tested, 2.8% active; note: % of control where 0% means no effect; nearly all actives have a fitted effect of over 55% in size
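HEK293 cells carry an SMN2 […]–luciferase reporter in which exon 7 inclusion puts luciferase in frame. Cells were plated 10-12 h before compound addition, then incubated 30-36 h at 37C. ONE-Glo luminescence was read; sodium butyrate at 4.5 mM final served as control.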
Tau fibril ThT: tau fibrillization inhibition (ThT binding). P10636. recombinant tau K18 P301L, heparin-induced fibrillization, ThT fluorescence. Potency, µM (highest dose often 57.4 µM), inactives show top-dose activity, negative = inhibition, most hits filed as inhibitors. 270,000 tested, 2.1% active. AID 1460; note: % is set by controls: 0 for no effect and ±100 for the full control effect; nearly all actives have a fitted effect of over 55% in size
Target sequence (P10636 561-689 P618L limits assumed): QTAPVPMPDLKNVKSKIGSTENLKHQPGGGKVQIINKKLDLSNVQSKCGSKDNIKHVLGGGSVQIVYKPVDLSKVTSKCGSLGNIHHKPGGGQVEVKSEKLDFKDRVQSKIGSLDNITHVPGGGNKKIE
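Recombinant human tau K18 fragment […] carrying P301L, 15 uM unlabeled plus 0.24 uM Alexa 594-labeled, was fibrillized with 20 uM heparin in 100 mM sodium acetate pH 7 for 6 hr at 37 C; 30 uM ThT fluorescence read after 1 hr.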
HTT cytoprotect: Huntington cell model cytoprotection by ATP luminescence | PC12 HTT-Q103 induced, cytoprotection, ATP luminescence, 40 h | Potency, µM (doses to about 56.4 µM), for inactives: cytoprotection (ATP increase), usual class: activators | 230,000 tested, 0.14% active | AID 1471;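 note: % of control where 0% means no effect; nearly all actives have a fitted effect of over 45% in size; toxic huntingtin expression switched on by the ecdysone agonist tebufenozide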
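Huntington model: PC12 line, ecdysone-inducible HTTQ103 exon1–GFP, tebufenozide 100 nM. Test articles in a dose series. Endpoint luminescence from cellular ATP.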
Tau FP inhib: inhibitors of human tau fibril formation | K18 P301L tau heparin fibrillization, Alexa594 FP, 6 h | Potency, µM (top dose mostly 57.7 µM), inactives show at the top dose activity, negative = inhibition, usual class: inhibitors | 280,000 tested, 0.39% active; note: % is set by controls: 0 for no effect and ±100 for the full control effect; nearly all actives have a fitted effect of over 55% in size
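Human K18 P301L fragment (15 uM unlabeled plus 0.24 uM Alexa 594-labeled) in 100 mM sodium acetate pH 7 with compound, aggregation induced by 20 uM heparin for 6 hr at 37 C. ThT (30 uM) added for 1 hr, then Alexa 594 FP read.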
HTT aggregate: mutant huntingtin aggregation inhibition; PC12 HttQ103-GFP aggregates, Acumen cytometry, 40 h; Potency, µM (doses to about 46.1 µM), for the others: at the highest dose activity change, negative = inhibition, actives largely listed as inhibitors; 220,000 tested, 1.1% active; AID 1688; note: % is set by controls: 0 for no effect and ±100 for the full control effect; nearly all actives have a fitted effect of over 60% in size
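Aggregate formation scored by laser-scanning cytometer (488 excitation, 500–530 emission) in lysed PC12 cells expressing Q103-GFP after 100 nM tebufenozide induction; library tested in dose series, with ATPLite reagent added in the multiplex.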
Tau fluor counter: counter-screen for tau fibril formation inhibitors; tau K18 P301L (four-repeat tau fragment) Alexa594 fluorescence, heparin fibrillization; Potency, µM (titrated, usually from 57.7 µM), for inactives: at the highest dose activity change, negative = decrease; 280,000 tested, 0.93% active; AID 1463; note: % is set by controls: 0 for no effect and ±100 for the full control effect; nearly all actives have a fitted effect of over 55% in size
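Human K18 P301L tau (15 uM unlabeled plus 0.24 uM Alexa 594-labeled, final) in 100 mM sodium acetate pH 7 was mixed with compound and 20 uM heparin and incubated 6 hr at 37 C.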
ALDH1A1 block: inhibitors of human aldehyde dehydrogenase 1A1. AID 1030. 220,000 tested, 7.3% active. P00352. Purified ALDH1A1, NADH fluorescence, propionaldehyde substrate. Potency, µM (doses to about 75.3 µM), for the others: top-dose activity, negative = inhibition, most hits filed as inhibitors; active = well fitted inhibition curve with a large enough effect, not every such curve was filed as active; inconclusive = small, poorly fitted or top-dose-only effect, or another doubt; inactive = no such curve, though single readings can be large or run the other way;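 note: plate controls were no enzyme wells and a reference inhibitor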
Target sequence (P00352 whole entry, looked up): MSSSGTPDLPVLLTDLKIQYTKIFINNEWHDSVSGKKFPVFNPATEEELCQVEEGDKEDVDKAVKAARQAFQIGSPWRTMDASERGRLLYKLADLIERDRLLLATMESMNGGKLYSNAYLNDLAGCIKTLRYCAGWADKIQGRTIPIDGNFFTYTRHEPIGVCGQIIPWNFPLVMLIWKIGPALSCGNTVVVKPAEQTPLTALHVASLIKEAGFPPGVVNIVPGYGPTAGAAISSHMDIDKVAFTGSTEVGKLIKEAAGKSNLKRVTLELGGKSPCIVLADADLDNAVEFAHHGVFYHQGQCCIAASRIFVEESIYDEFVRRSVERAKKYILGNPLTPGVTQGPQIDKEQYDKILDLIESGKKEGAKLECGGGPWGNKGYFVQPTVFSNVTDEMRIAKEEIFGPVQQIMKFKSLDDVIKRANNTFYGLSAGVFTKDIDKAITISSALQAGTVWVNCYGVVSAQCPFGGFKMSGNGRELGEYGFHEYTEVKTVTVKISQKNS
The depositor's hits bear a star; ? = inconclusive; . = not tested or not shown; [ ] = dose if it differs, or a comment. Unless noted, calls come from the whole dose curve; as a rule, active = well fitted curve in the direction sought with a large enough effect; inconclusive = small, poorly fitted or top-dose-only effect, or another doubt; inactive = no such curve, though single readings can be large; an effect the other way counts as inactive or inconclusive. Potency is the fitted concentration of half-maximal effect.

nr	SMILES	SMN2 splice enh	Tau fibril ThT	HTT cytoprotect	Tau FP inhib	HTT aggregate	Tau fluor counter	ALDH1A1 block
1	COc1cccc(OC)c1C(=O)Nc1c(C)n(C)n(-c2ccccc2)c1=O	6%	-6%	-10%[10 µM]	4%	7%	-4%	7%
2	O=C(c1cccc(Cl)c1)N1CCC(=O)N(C(COCc2cccc(Cl)c2)Cc2ccccc2)CC1 (configuration not stated)	-13%	?	.	3%	-29%	-10%	-6%
3	Cc1ccccc1C(OCCN(C)C)C1CCCCC1 (configuration not stated)	7%	-3%	7%[0.074 µM]	2%	-20%	0%	11%
4	COc1ccc(S(=O)(=O)N2CCCCC2)cc1NC(=O)Cc1c[nH]c2ccccc12	-12%	0%	.	15%	23%	?	-8%
5	FC(F)(F)c1cnc(Oc2cccc3ccccc23)c(Cl)c1	4%	-9%	1%[10 µM]	-4%	14%	-9%	1%
6	O=C(Nc1nc2ccccc2n1CCN1CCOCC1)c1ccc(COc2ccccc2Br)o1	-27%	-5%	.	1%	?	-24%	5%
7	N#Cc1ccc(-c2cccnc2)nc1SCc1ccc(Cl)c(Cl)c1	-24%	9%	14%[10 µM]	?	-17%	-22%	-3%
8	CCOC(=O)c1nnn(-c2nc(OC)nc(N3CCCCC3)n2)c1-c1ccccc1	-32%[inhibitor]	-17%	2%	-2%	-2%	-3%	-11%
9	Brc1ccc2c(c1)[C@H]1OCC[C@H]1[C@@H](c1cccs1)N2	.	?	-47%[inhibitor][10 µM]	-2%	-18%[9.22 µM]	?	.
10	CN(c1ccccc1)S(=O)(=O)c1cccc(NC(=O)CSc2ncn[nH]2)c1	-54%[inhibitor]	-3%	28%[10 µM]	-12%	-17%	-19%	4%
11	Cn1cc(Cl)c(-c2n[nH]c(=S)n2-c2ccccc2)n1	6%	-1%	.	0%	2%	7%	-13%
12	C=CCn1c(CCNC(=O)c2cccs2)nnc1SCC(=O)Nc1cccc(F)c1	24%	-8%	5%	?	7%	-21%	3%
13	O=C(N/N=C/c1ccc(N2CCOCC2)s1)c1ccc(NS(=O)(=O)c2cccs2)cc1	.	?	-1%[10 µM]	11%	0%[9.22 µM]	?	16µM*
14	O=C(NNC(=O)c1ccc(O)cc1O)c1ccc(Cl)cc1	14%	-9%	4%[10 µM]	6%	?	-2%	10%
15	CC(=O)NS(=O)(=O)c1cccnc1Nc1cccc(Cl)c1	6%	-8%	4%	2%	3%	-3%	?
16	O=C(NNc1nc2c(F)cccc2s1)c1ccc(F)cc1	9%	-11%	.	3%	-18%	-3%	7%
17	O=C(N/N=C1\CCCc2ccccc21)C(O)c1ccccc1 (configuration not stated)	-2%	-5%	18%	-2%	-14%	2%	2%
18	O=C(CSc1ncn[nH]1)c1ccco1	-15%	?	0%[10 µM]	1%	-3%	-2%	?
19	COc1nc(OC)nc(N2CCC(C(=O)NC3CC3)CC2)n1	-12%	-6%	-11%	-1%	-8%	-9%	7%
20	COc1cc2c(cc1OC)CN(CC(=O)Nc1ccc(S(=O)(=O)N(C)C)cc1)CC2	-3%	-5%	-39%[inhibitor]	-2%	-7%	-11%	?
21	O=C(N/N=C/c1cccc2nccnc12)c1ccncc1	.	-11%	28%[10 µM]	-2%	25%[9.22 µM]	-6%	.
22	CN(C)CCCCOc1ccc(F)cc1	-2%	-5%	-34%[inhibitor]	-2%	0%	-4%	-4%
23	CCOC(=O)c1ccc(-c2ccc(/C=N/NC(=O)CN(c3cccc(C)c3)S(C)(=O)=O)o2)cc1	?	-2%	-2%[10 µM]	-7%	12%	-8%	?
24	Cc1ccccc1OCC(O)Cn1nnc2ccccc21 (configuration not stated)	11µM*	7%	-7%[10 µM]	3%	-8%	6%	-2%
25	CCC(C)NCCOc1ccccc1C (configuration not stated)	-2%	13%	18%	1%	?	-11%	?
26	O=C(COc1ccccc1)N1CCN(C(=O)Cc2ccccc2)CC1	-9%	0%	15%[10 µM]	4%	3%	6%	-2%
27	CC1(C)OC(=O)C(C(c2ccccc2)C(C#N)C(N)=O)=C(O)O1 (configuration not stated)	21%	7%	-24%[0.074 µM]	-1%	-7%	4%	-5%
28	Cc1ccnc(N2CCC(C(=O)NC3CCCCCC3)CC2)n1	-19%	3%	2%[10 µM]	5%	2%	1%	?
29	Cc1ccc2oc(-c3ccc(NC(=O)c4ccncc4)cc3O)nc2c1	.	-16%	16%[10 µM]	-13%	-4%[9.22 µM]	-26%	3%
30	CC1CC1C(=O)OCC(=O)NC(=O)NCc1ccco1 (configuration not stated)	-1%	-12%	?	-2%	-6%[9.22 µM]	-7%	9%
31	Cc1ccc(NC(=O)CN2CCc3ccccc3C2)cc1S(=O)(=O)N(C)C	-2%	-1%	-18%	-7%	-1%	-3%	?
32	COC(=O)c1ccc(C2CC(=O)NC3=C2C(=O)CCC3)cc1 (configuration not stated)	-9%	-5%	2%	-6%	10%	-10%	0%
33	O=C(CSc1ccc2nnc(CCNC(=O)c3ccccc3)n2n1)Nc1ccccc1F	-15%	0%	2%	5%	-6%	0%	0%
34	Cc1ccc(CSc2ccc3nnc(-c4cccnc4)n3n2)cc1	-3%	-11%	-13%[10 µM]	2%	?	-5%	?
35	CC(Oc1ccccc1)C(=O)NNC(=O)c1ccccn1 (configuration not stated)	-88%[inhibitor]	-1%	4%[10 µM]	1%	-28%	10%	12%
36	COc1ccc(Cl)cc1NC(=O)CN(C)Cc1ccc(OC)c(OC)c1	-11%	-6%	-7%	-3%	21%	-4%	?
37	c1ccc(-c2ccccc2OCCCCN2CCCCCC2)cc1	-4%	-6%	.	4%	-4%	5%	?
38	O=C1CCC/C(=N\NC(=O)c2ccc(COc3ccccc3-c3ccccc3)cc2)C1	14%	?	-23%[10 µM]	8%	11%	-26%	-1%
39	COc1ccc(-c2nc(CN(Cc3cnn(C)c3)C(C)C)c(C)o2)c(OC)c1	.	-1%	12%[10 µM]	4%	-5%[9.22 µM]	4%	3%
40	COc1ccc(-c2ccc(-c3nnc(-c4ccncc4)o3)cc2)cc1	-23%	-18%	7%[10 µM]	-4%	2%	-1%	-6%
41	Cn1cnnc1SCC(=O)N1N=C2/C(=C/c3ccco3)CCCC2C1c1ccco1 (configuration not stated)	-16%	-7%	-16%	-3%	-32%	1%	16µM*
42	COc1ccc(-c2cc(C(=O)Nc3ccccc3F)on2)cc1	?	-16%	6%	2%	-5%	0%	0%
43	Cc1cc(C)c(S(=O)(=O)Nc2cccnc2)c(C)c1	-8%	-1%	16%[10 µM]	1%	-33%	3%	?
44	COc1ccc(CCN2C(=O)c3[nH]nc(-c4ccccc4O)c3C2c2ccc(C)cc2)cc1OC (configuration not stated)	-24%	-9%	-4%[0.074 µM]	-4%	-44%	?	-7%
45	COc1ccc(C(=O)N2CCC(N3CCN(c4ccccc4)CC3)CC2)cc1OC	-18%	-10%	18%[10 µM]	4%	3%	0%	?
46	COc1cc(CNC2CCCCC2OC)cc(OC)c1OC (configuration not stated)	1%	-2%	9%[10 µM]	-6%	-2%	-1%	?
47	CC1=C(C(=O)Nc2cccnc2)C(c2cccnc2)n2ncnc2N1 (configuration not stated)	?	4%	13%[10 µM]	1%	30%	6%	1%
48	CN1C(=O)CS(=O)c2ccc(C(=O)NC3CC3)cc21 (configuration not stated)	-8%	6%	-4%	8%	5%	-2%	5%
49	O=C(Cc1ccc(Cl)c(Cl)c1)Nc1cccc2ncccc12	-20%	?	-33%[inhibitor]	-2%	-8%	-17%	-3%
50	CCOc1ncnc2c1[nH]c1ccccc12	.	-15%	2%[10 µM]	8%	-12%[9.22 µM]	-13%	.

Given screen by screen: nine of the compounds above.
42: COc1ccc(-c2cc(C(=O)Nc3ccccc3F)on2)cc1
43: Cc1cc(C)c(S(=O)(=O)Nc2cccnc2)c(C)c1
44: COc1ccc(CCN2C(=O)c3[nH]nc(-c4ccccc4O)c3C2c2ccc(C)cc2)cc1OC (configuration not stated)
45: COc1ccc(C(=O)N2CCC(N3CCN(c4ccccc4)CC3)CC2)cc1OC
46: COc1cc(CNC2CCCCC2OC)cc(OC)c1OC (configuration not stated)
47: CC1=C(C(=O)Nc2cccnc2)C(c2cccnc2)n2ncnc2N1 (configuration not stated)
48: CN1C(=O)CS(=O)c2ccc(C(=O)NC3CC3)cc21 (configuration not stated)
49: O=C(Cc1ccc(Cl)c(Cl)c1)Nc1cccc2ncccc12
50: CCOc1ncnc2c1[nH]c1ccccc12

| entry no. | 42 | 43 | 44 | 45 | 46 | 47 | 48 | 49 | 50 |
| --- | --- | --- | --- | --- | --- | --- | --- | --- | --- |
| SMN2 splice enh | ? | -8% | -24% | -18% | 1% | ? | -8% | -20% | . |
| Tau fibril ThT | -16% | -1% | -9% | -10% | -2% | 4% | 6% | ? | -15% |
| HTT cytoprotect | 6% | 16%[10 µM] | -4%[0.074 µM] | 18%[10 µM] | 9%[10 µM] | 13%[10 µM] | -4% | -33%[inhibitor] | 2%[10 µM] |
| Tau FP inhib | 2% | 1% | -4% | 4% | -6% | 1% | 8% | -2% | 8% |
| HTT aggregate | -5% | -33% | -44% | 3% | -2% | 30% | 5% | -8% | -12%[9.22 µM] |
| Tau fluor counter | 0% | 3% | ? | 0% | -1% | 6% | -2% | -17% | -13% |
| ALDH1A1 block | 0% | ? | -7% | ? | ? | 1% | 5% | -3% | . |

Additional records.
nr	SMILES	SMN2 splice enh	Tau fibril ThT	HTT cytoprotect	Tau FP inhib	HTT aggregate	Tau fluor counter	ALDH1A1 block
51	O=c1cc(CO)oc(CN2CCCC2)c1O	-3%	-18%	0%	-7%	-12%	-4%	4%
52	CN(C)CCCSc1nc2ccccc2s1	?	-14%	14%[10 µM]	-10%	2%	-15%	?
53	CC1(C)CC(=O)C(=C2SCCCS2)C(=O)C1	1%	-4%	.	2%	-1%	3%	?
54	O=C(CCC(=O)c1cccs1)NC(c1ccccc1)c1ccccc1	-9%	6%	5%	2%	22%	3%	?
55	CN(Cc1ccccc1)C(=O)C1CCCN(Cc2cccc(Cl)c2)C1 (configuration not stated)	-9%	-8%	-29%	-7%	?	-9%	-14%
56	CCOC(=O)C1(Cc2ccccc2)CCN(CC2CC=CCC2)CC1 (configuration not stated)	.	3%	24%[10 µM]	2%	20%[9.22 µM]	15%[2.34 µM]	6%
57	N#CCCn1[nH]c(-c2ccccc2)cc1=O	-7%	?	5%[10 µM]	?	1%	-11%	6%

Not all compounds are listed. The share of hits here may be higher or lower than overall.
